Tgondii IFNg – T. gondii growth inhibition with IFN-gamma, primary screen, cell-based. Toxoplasma gondii growth in IFN-gamma-treated host cells; hits give low values; reference of the scale not given here. activity change, negative = inhibition, %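 (about 20 µM by stock and volumes)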. 3.8% of 69,000 active. AID 1259416, 2018;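 active = below -70%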;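 also: host cells are HeLa cells infected with Toxoplasma gondii; parasite growth read as luciferase light; one replicate is shown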
* = called active by the depositor; i = inactive; & = joins results of further samples.

structure	Tgondii IFNg
Cc1oc(-c2ccccc2)nc1Cn1ccn2nc(-c3cccs3)cc2c1=O	35
CCOC(=O)NC(=S)Nc1cc(C(C)(C)C)ccc1NC(C)=O	-21
O=C1N[C@@H](c2ccccc2)COCc2cnnn2CC[C@@H]1Cc1ccc(C(F)(F)F)cc1	-60
CC1NC(=O)COC12CCN(C(=O)c1ccc[nH]1)CC2 (stereo not drawn)	-1
COc1ccc(C2c3[nH]c4ccccc4c3CCN2C(=O)c2ccc(Br)cc2)cc1 (stereo not drawn)	-89*
Cc1ccc(C)c(NC(=O)c2c(O)c3ccccc3n(-c3ccccc3)c2=O)c1	173
CCCc1cnc(C)nc1N1C[C@@H]2[C@H](C1)[C@H]1CC[C@@H]2O1	-53
Cc1cc(C)c2c(=O)n(Cc3nc(-c4ccccc4C)oc3C)c(=O)n(-c3ccccc3)c2n1	-51
OCCN(Cc1cccnc1)Cc1cccn1-c1ccc(F)cc1F	-25
COc1ccc(C(=O)O)cc1F	-13
COCCCN(Cc1ccccn1)Cc1ccnn1C1CCCCO1 (stereo not drawn)	-20
O=C(NCC[C@@H]1CC[C@H](NS(=O)(=O)Cc2ccccc2)[C@@H](CO)O1)C1CCCCC1	-16
CC(=O)N1CCC(NCCCn2ccc3ccccc32)CC1	-2
CN1CCC(CN2CCC(c3nn(C)c(=O)n3-c3ccccc3)CC2)CC1	-5
O=C(c1cccnc1)N1CC(=O)N2[C@@H](CO)[C@@H](c3ccc(-c4ccccc4F)cc3)[C@@H]2C1	9
CN1c2ccc(Br)cc2[C@@H]2[C@@H](CCN2C(=O)C2CCC2)[C@H]1CO	4
Cc1cc(C)cc(NC(=O)CC2SCCNC2=O)c1 (stereo not drawn)	79
O=C1CCCN1CCC1CCCCN1C(=O)NCc1ccc(Cl)cc1 (stereo not drawn)	3
CNS(=O)(=O)c1cc(C(F)(F)F)ccc1Cl	-34
Cc1ccc(S(=O)(=O)N2CCC(c3nc(C(=O)N4CCOCC4)c(C)o3)CC2)cc1	-15
CS(=O)(=O)N1CCC(NCCc2cnn(-c3ccccc3)c2)CC1	5
C[C@@H]1CN([C@@H](C)CO)C(=O)c2cc(NS(C)(=O)=O)ccc2O[C@@H](C)CCCCO[C@H]1CN(C)C(=O)Cc1ccccc1	319
Nc1nc(CSc2nc3ccccc3s2)nc(N2CCOCC2)n1	-22
COCC(=O)N1CC2(C1)[C@H](c1ccc(-c3cccc(F)c3)cc1)[C@H](CO)N2C(=O)C1CC1	-29
O=c1c2ccccc2nc2n1CCc1c-2[nH]c2ccccc12	353
CCS(=O)(=O)Nc1ccc2c(c1)C(=O)N(C)[C@H]1CC[C@H](CC(=O)NCCCN3CCOCC3)O[C@H]1CO2	-25
CC(C)NC(=O)N1CCN2C(=O)c3ccccc3[C@H]2C1	53
COc1ccc(N2CCN(C(=O)CCC3Nc4c5ccccc5nc(=S)n4C3=O)CC2)cc1 (stereo not drawn)	0
O=C(Nc1cnc2n1CCCC2)c1cc(=O)nc2sccn12	-5
CCCCOC(=O)N1CCc2c(nc(N(C)C)[nH]c2=O)C1	-16
COc1ccc(S(=O)(=O)Nc2ccc3c(c2)C(=O)N([C@@H](C)CO)C[C@H](C)[C@@H](CN(C)Cc2ccc(C(F)(F)F)cc2)OCCCC[C@H](C)O3)cc1	-129*
CCCn1nnnc1NC(=O)COc1ccc(Cl)c(C)c1	-8
CN(C)C(=O)C[C@@H]1CC[C@@H]2[C@H](COC[C@@H](O)CN2C(=O)C2CCOCC2)O1	30
CN1CCN(C(=O)C2CC=CC2)Cc2cccnc21	47
COc1ccc(C2NC(=O)c3ccccc3O2)c(OC)c1OC (stereo not drawn)	16
N#C[C@H]1[C@@H](c2ccc(-c3cccc(F)c3)cc2)[C@@H](CO)N1C(=O)NC1CCCC1	-20
CCOCCn1cnc(-c2ccccc2)c1-c1c(CC)nn(C)c1Cl	22
CCn1c(-c2cc(NC(=O)c3ccncc3)n[nH]2)cc2c(OC)cccc21	-103*
COc1ccc(CC(=O)Nc2cccc(C(=O)Nc3ccccc3C(=O)O)c2)cc1OC	-8
CC(C)c1cc2cc3ccc(=O)oc3cc2o1	-36
O=S(=O)(c1cccs1)N1CCC2(CC1)NCCN=C2NCc1ccc(Cl)cc1	-12
O=S(=O)(c1cc(Br)c(Cl)s1)N1CCSCC1	-17
COc1cccc(NC(=O)CN2C(=O)CCc3cc(S(=O)(=O)N4CCC(C)CC4)ccc32)c1	-41
CCCc1cnc(C)nc1-c1c(F)cccc1OC	6
Cc1ccc(CC(=O)N2CCn3nnc(COc4cccnc4)c3C2)cc1	-55
CCOc1ccc(-c2cc3c(=O)n(Cc4nc(-c5cccc(OC)c5OC)oc4C)ccn3n2)cc1	27
O=C(C[C@H]1CC[C@H]2[C@@H](COC[C@@H](O)CN2S(=O)(=O)c2ccccc2F)O1)N1CCC(Cc2ccccc2)CC1	-59
COc1ccc(-c2ccc3ncc4c(c3c2)n(-c2ccc(N3CCNCC3)c(C(F)(F)F)c2)c(=O)n4C)cn1	-90*
Cn1cc(N2CC3(CCN(C(=O)c4ccncc4)C3)CC2=O)cn1 (stereo not drawn)	-8
Cc1ccccc1-c1ccc2c(c1)O[C@H](CN(C)C(=O)Nc1ccc(C(F)(F)F)cc1)[C@H](C)CN([C@H](C)CO)S2(=O)=O	-23
CCOc1ccccc1-c1nc(Cn2nnc(C(=O)Nc3ccc(OC)cc3OC)c2C)c(C)o1	40
CO[C@@H](CN(C)C(=O)c1cc(Cl)cc(Cl)c1)[C@@H](C)CN(C(=O)Nc1ccc(F)cc1)[C@H](C)CO	89
C=C(C)COc1ccccc1C(=O)N(Cc1c(C)nn(C)c1C)C1CC1	-55
CCCNC(=O)c1ccccc1-c1cccc(C(C)=O)c1	3
COc1cccc(CNC(=O)CN2C(=O)CCc3cc(S(=O)(=O)N4CCCC4)ccc32)c1	-13
CNS(=O)(=O)c1ccc(C2NCCc3[nH]cnc32)cc1 (stereo not drawn)	1
COc1ccc(NS(=O)(=O)c2cc3c4c(c2)CCC(=O)N4CCC3)cc1OC	3
Cc1nonc1CN(C)C(=O)C(C)N(c1ccccc1)S(C)(=O)=O (stereo not drawn)	4
O=C(NCc1ccccn1)c1c(O)c2ccccc2n(-c2ccccc2)c1=O	15
COCC1c2nnn(C)c2CCN1C(=O)COc1ccccc1C (stereo not drawn)	-10

Additional structures.
structure	Tgondii IFNg
COC(=O)c1ccc2nc(N)sc2c1	-28
CC1=C(C(=O)N(C)Cc2n[nH]c3c2CCCCC3)C(C)NC(=O)N1 (stereo not drawn)	-14
O=C(CN1C(=O)CCc2cc(Br)ccc21)N1CCN(c2ccccc2F)CC1	-24
O=S(=O)(N1CCOCC1)N1CCC(Oc2cnccn2)CC1	-20
CCNC(=O)c1[nH]nc(-c2cc(Cl)c(O)cc2O)c1-c1ccc(OC)cc1	-46
Cc1ccc2[nH]c(=S)n(-c3ccc(S(=O)(=O)N4CCCCC4)cc3)c(=O)c2c1	-2
Cc1ccccc1-c1nn(-c2ccc(F)cc2F)cc1CNCCN(C)C	7
Cc1ccc2nc(C)cc(NCCNS(=O)(=O)c3cn(C)nc3C)c2c1	113
O=C(Cc1ccccn1)N[C@H]1CC[C@@H](CCNS(=O)(=O)c2cccc(F)c2)O[C@@H]1CO	18
CCCc1nc(C(=O)N2CCCC(c3n[nH]c(=O)n3CC)C2)cs1 (stereo not drawn)	-4
Cc1ccc2cc(CN(C)Cc3cnn(C)c3)c(=O)[nH]c2c1	2
CN(CCc1ccccn1)Cc1cccc(C(=O)Nc2cnn(C)c2)c1	-4
O=c1oc2c(CN3CCCCC3)c(O)ccc2c2c1CCCCC2	10
Cc1nc(NC(=O)NCCC2CCCCCC2)nn1C	7
CN1C(=O)c2cc(NS(C)(=O)=O)ccc2OC[C@@H]2O[C@H](CC(=O)NCc3ccccc3)CC[C@@H]21	9

Some of the entries so far, field by field:
Structure: Cc1ccc2[nH]c(=S)n(-c3ccc(S(=O)(=O)N4CCCCC4)cc3)c(=O)c2c1
- Tgondii IFNg: -2
Structure: Cc1ccccc1-c1nn(-c2ccc(F)cc2F)cc1CNCCN(C)C
- Tgondii IFNg: 7
Structure: Cc1ccc2nc(C)cc(NCCNS(=O)(=O)c3cn(C)nc3C)c2c1
- Tgondii IFNg: 113
Structure: O=C(Cc1ccccn1)N[C@H]1CC[C@@H](CCNS(=O)(=O)c2cccc(F)c2)O[C@@H]1CO
- Tgondii IFNg: 18

The list continues.
structure	Tgondii IFNg
COCC(C)(C)CNC(=O)[C@]12CC[C@](C)([C@@H](O)C1)C2(C)C	2
Cc1cc(C(F)(F)F)c2c(N)nn(CCO)c2n1	-6
Cc1ccsc1C(=O)N1CCc2nc(-c3cnn(C)c3)nc(NC(C)C)c2C1	-27
COc1cccc(S(=O)(=O)N2CCCCN3[C@H](CO)[C@@H](c4ccc(C#CCC(C)C)cc4)[C@@H]3C2)c1	-55
CCCS(=O)(=O)N1CCc2ncc(Cn3cncn3)n2CC1	-42
COc1ccc(CCCNC(=O)c2ccc(-c3cccc(F)c3)nc2)cc1	-6
Cc1nc(OCC(=O)Nc2ccccc2F)c2ccccc2n1	7
Cc1oncc1C(=O)N1CCC2(CC(NS(C)(=O)=O)C2)C1 (stereo not drawn)	2&17
CS(=O)(=O)CCNC(=O)CSCc1ccccc1Cl	-7
Cc1nc(CN2C[C@H]3COC[C@@]3(COCC3CC3)C2)cs1	-15
COCCC(=O)c1cc(-c2cn(-c3ccccn3)c(C)n2)n2ccccc12	348
Cc1ccc(-c2ccc([C@@H]3[C@@H]4CN(Cc5ccccc5F)C[C@H]3N4)cc2)cc1	-73*
Cc1ccc(C2c3[nH]c4ccccc4c3CCN2C(=O)c2cccs2)cc1 (stereo not drawn)	-64
COc1ccc(-n2c(=O)c(C(=O)NCc3cccc(Cl)c3)c(O)c3cccnc32)cc1	39
COc1ccc2c(c1)OCC(Cc1ccc(OC)c(OC)c1)C2=O (stereo not drawn)	-3
CC(=O)Nc1ccc(C(=O)N2CCN(C(=O)c3ccco3)CC2)cc1	-52
CNC(=O)C1Cn2ccnc2C2(CCN(Cc3ccc(C)s3)CC2)O1 (stereo not drawn)	96
COc1ccc2ncc3c(c2c1)-c1cc(Cl)ccc1OC3	255
CN(C)CC1(O)CCN(C(=O)Cc2ccc3c(c2)OCO3)C1 (stereo not drawn)	12
Cc1cccnc1CC(C)N(C)c1cc(CCN)ncn1 (stereo not drawn)	6
CN1CCN(C2=Nc3cc(F)ccc3Cc3ccccc32)CC1	3
O=C(NCc1ccccc1)[C@H]1CCS(=O)(=O)[C@H]2CNC[C@@H]12	-3
CCN(Cc1cnn(CC)c1)Cc1nc(-c2ccco2)no1	-12
O=C(C[C@@H]1CC[C@@H](NS(=O)(=O)c2ccc(F)cc2)[C@H](CO)O1)N1CCN(c2ccccc2)CC1	-23
CS(=O)(=O)N1CC(=O)N2[C@H](CO)[C@@H](c3ccc(Br)cc3)[C@H]2C1	-47
CCOc1ccc2nc(N3CCCN(C4CCSCC4)CC3)nc(C)c2c1	14
Clc1ccc(-c2[nH]ncc2CN2CCOC3(CNCCOC3)C2)cc1 (stereo not drawn)	1
CC(C)(C)NC(=O)Cn1cc(C(=O)c2ccco2)c2ccccc21	-2
Cn1cc(/C=C/C(=O)N2CCCC(c3n[nH]c(=O)n3-c3ccccc3)C2)cn1 (stereo not drawn)	3
CSc1cccc(-n2c(CCN)n[nH]c2=O)c1	0
COc1ccc(C(=O)N2CCC(c3cc(-c4cccc(F)c4)n(C)n3)CC2)cc1	-7
Cc1cc2nc(C)c(Cc3ccccc3)c(=O)n2[nH]1	-1
CN(C)CCn1c2c(ccc1=O)CC(NC(=O)N1CCCC1)CC2 (stereo not drawn)	1
CC(C)OCC(=O)Nc1cnn(CC(=O)Nc2ccc(F)cc2)c1	2
C=CCNc1ccccc1C(=O)NCCNC(C)=O	4
Cc1ccc(-c2nc3c(s2)CN(C(=O)Nc2ccc(C)cc2C)CC3)cc1	210
O=C(Cn1ncc2c(N3CCN(c4ccccn4)CC3)ncnc21)NCc1cccnc1	11
COc1cccc(CN2C[C@@H](C(=O)N3CCCCO3)[C@@H]3OCC[C@H]32)n1	-38
Cc1[nH]c2ccc(CNC(=O)c3cnc4c(c3)nnn4C)cc2c1C	17
CC(C)N1C2CN(Cc3ccco3)CC2C[C@@H]1C(=O)NCC1CC1 (stereo partly drawn)	38
Cc1nc(-c2ccc(Cl)cc2)sc1CCNC(=O)c1ccc2c(c1)OCO2	-52
COc1ccc(CCNC(=O)CN2CCS(=O)(=O)CC2)cc1	-2
Nc1c2c(nc3ccccc13)CCCC2	-16&4&5
CN1C(=O)c2cc(NS(=O)(=O)c3ccccc3F)ccc2OC[C@@H]2O[C@@H](CC(=O)NC3Cc4ccccc4C3)CC[C@H]21	19
c1ccc2c(-c3c[nH]c4ccccc34)c3ccccc3nc2c1	-86*
COc1ccc(C(=O)N2CCc3c([nH]c4ccccc34)C2c2ccc(SC)cc2)cc1OC (stereo not drawn)	i
C[C@@H]1CCCCO[C@@H](CN(C)C(=O)CCC(F)(F)F)[C@H](C)CN([C@H](C)CO)C(=O)c2cc(NC(=O)C3CCCCC3)ccc2O1	-14
CC(C)CN1C(=O)CCc2cc(NC(=O)c3cc(F)ccc3Cl)ccc21	-40
CC(C)NC(=O)Nc1ccc2c(c1)C(=O)N(C)[C@@H]1CC[C@H](CC(=O)NCc3ccc(F)cc3)O[C@@H]1CO2	-17
COc1cc(OC)c2c(C)c(Cl)c(=O)oc2c1	16

2 of these compounds in a different format.
CC(C)CN1C(=O)CCc2cc(NC(=O)c3cc(F)ccc3Cl)ccc21
  Tgondii IFNg: -40

CC(C)NC(=O)Nc1ccc2c(c1)C(=O)N(C)[C@@H]1CC[C@H](CC(=O)NCc3ccc(F)cc3)O[C@@H]1CO2
  Tgondii IFNg: -17

From PubChem

A portion of the library (hit frequency here may not be typical).
